Screening results: PubChem, National Center for Advancing Translational Sciences (NCATS)
gsp ag – agonists of gsp mutant (McCune-Albright syndrome). gsp mutant cells, cAMP HTRF, 30 min; control for the full effect not named in the record. Potency, µM (doses to about 76.9 µM), without a hit: at the top dose activation (cAMP increase), most hits filed as activators. actives 0.13% (n = 340,000); active = well fitted activation curve with a large enough effect; inconclusive = small, poorly fitted or top-dose-only effect, or another doubt; inactive = no such curve, though single readings can be large or run the other way; cell line not stated here;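 further: phosphodiesterase inhibitor Ro 20-1724 added with compounds to block cAMP breakdown; potency means the concentration at half of the fitted maximal effect; nearly all actives have a fitted effect of over 60% in size; about a fifth of the inactives were tested at one dose only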
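Cells stably selected in G418 were plated at 2000/well, grown 16-24 hr, then given compounds in DMSO with the PDE inhibitor […] (300 uM solution added) for 30 min at 37C; cAMP was read by HTRF.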
TRPML1 agonist – human mucolipin-1 channel agonism; activation, % (test concentration not listed); actives 0.12% (n = 410,000); TRPML1-expressing cells, Ca2+ dye fluorescence, FDSS; host cell line not named in the record; reference of the full effect not given here; in the data active = activation above about 50%; inconclusive = about 30% to 50%; inactive = below about 30%; further: 0% is about no effect; the text of the record puts the active cut at 80%
Target sequence (Q9GZU1 whole entry, looked up): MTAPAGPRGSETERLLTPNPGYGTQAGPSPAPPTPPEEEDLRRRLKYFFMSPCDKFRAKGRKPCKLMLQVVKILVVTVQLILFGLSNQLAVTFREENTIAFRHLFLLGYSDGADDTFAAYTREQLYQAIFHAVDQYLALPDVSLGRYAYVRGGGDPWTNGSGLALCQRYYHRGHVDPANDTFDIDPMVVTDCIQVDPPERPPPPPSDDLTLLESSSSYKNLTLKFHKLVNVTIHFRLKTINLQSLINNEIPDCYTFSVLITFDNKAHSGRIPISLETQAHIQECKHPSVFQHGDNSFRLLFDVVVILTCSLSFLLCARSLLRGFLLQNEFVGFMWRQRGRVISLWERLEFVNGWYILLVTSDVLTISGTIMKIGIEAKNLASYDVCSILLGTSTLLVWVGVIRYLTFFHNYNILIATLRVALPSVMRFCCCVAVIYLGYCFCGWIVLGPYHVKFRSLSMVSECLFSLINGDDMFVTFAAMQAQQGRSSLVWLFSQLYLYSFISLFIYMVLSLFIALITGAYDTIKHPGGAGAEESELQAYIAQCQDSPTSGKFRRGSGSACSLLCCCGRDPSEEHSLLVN
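Tet-induced TRPML1-DL cells, 1,500 per well, cultured overnight, were loaded with a no-wash Ca2+ dye for 45–90 min. Calcium fluorescence was recorded on the FDSS for 110 s after compound addition, before the EC80 agonist (4 uM 54-4) was added.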
Menin MLL FP FL – inhibitors of human menin-MLL interaction, wild-type MLL peptide. Fluorescence polarization, fluorescein-MLL peptide displacement from menin. FP activity change, % at 61.4 µM. 290,000 tested, under 10 active. AID 1766; inconclusive = falling polarisation curve, or a change in total fluorescence; inactive = total fluorescence flat and polarisation flat or rising; no compound was filed as active; the % refers to the polarisation; negative = inhibition;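 further: % of control where 0% means no effect; inhibitors lower the polarisation; unlabelled MLL peptide was the positive control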
ClpP mod – qHTS Assay for Activators of ClpP; actives 1.9% (n = 340,000); Potency, µM (series often up to 57.5 µM), without a hit: at the top dose activity change, negative = active; ATP-dependent Clp protease proteolytic subunit (Bacillus subtilis (strain 168)), P80244; purified B. subtilis ClpP, FRET peptide cleavage, 20 min; active = well fitted falling curve with a large enough effect; inconclusive = small, poorly fitted or top-dose-only effect; inactive = no such curve, though single readings can be large or run the other way; further: potency means the concentration at half of the fitted maximal effect; the source files actives as falling curves though it sought activators and does not explain the sign; nearly all actives have a fitted effect of over 65% in size; many hits overshoot -100%
Target sequence (P80244 whole entry, looked up): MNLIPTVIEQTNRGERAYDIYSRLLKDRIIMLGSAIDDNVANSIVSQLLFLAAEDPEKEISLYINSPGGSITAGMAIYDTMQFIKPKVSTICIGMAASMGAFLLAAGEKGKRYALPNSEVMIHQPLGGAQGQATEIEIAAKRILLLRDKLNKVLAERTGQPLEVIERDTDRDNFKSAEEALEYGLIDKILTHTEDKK
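Purified B. subtilis ClpP, 10 microg/mL final in Tris/HCl pH8 with KCl, BSA, glycerol and Tween-20, cleaved an Abz/nitrotyrosine-quenched decapeptide. Fluorescence (ex 320, em 430) was read at 0 and 20 min at room temperature. Delta was normalized to 5.8 microM ADEP and DMSO/no-enzyme controls.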
TRPML1 blocker – blocks the human TRPML1 channel | actives 0.02% (n = 390,000) | activity change, negative = inhibition, % (concentration not given with the values) | TRPML1-inducible cells, Ca2+ dye fluorescence, FDSS; active compounds read low; inhibition of EC80 agonist-evoked calcium signal | Q9GZU1 | AID 624415; in the data active means activity change below about -50%; inconclusive means about -30% to -50%; inactive means above about -30%;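 further: stimulus is agonist 54-4 at its EC80 concentration; on the % scale 0 is the no-effect control and ±100 the full control effect; the text of the record puts the active cut at -80%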
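Tet-induced TRPML1-DL cells loaded with Ca8 no-wash calcium dye were read kinetically on FDSS. Compound addition was followed by EC80 agonist 54-4 (4 uM final); inhibition was read over 110 s.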
gsp antagonist – gsp mutant antagonism; gsp-mutant cells, cAMP HTRF, 30 min; control for the full effect not named in the record; Potency, µM (series often up to 76.9 µM), inactives show at the highest dose activity change, negative = inhibition, actives largely listed as inhibitors; actives 0.4% (n = 340,000); AID 624288; active = falling curve of any shape with a large fitted effect; inconclusive = falling curve, mostly with a smaller effect; inactive = flat or rising curve; cell line not stated here;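 further: intracellular cAMP measured with PDE inhibitor Ro 20-1724 present during compound exposure; potency means the concentration at half of the fitted maximal effect; on the % scale 0 is the no-effect control and ±100 the full control effect; nearly all actives have a fitted effect of over 65% in size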
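G418-selected cells were plated in DMEM/10% FBS for 16-24 h at 37C, then treated with compounds plus the PDE inhibitor […] (300 uM solution added) for 30 min at 37C. Intracellular cAMP was measured by HTRF after 30 min lysis at room temperature.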
Starred values were filed as active, the others as inactive; ? = inconclusive; . = no result given; & = joins results of further samples; [ ] = dose if it differs, or a comment.

Every second line gives: gsp ag	TRPML1 agonist	Menin MLL FP FL	ClpP mod	TRPML1 blocker	gsp antagonist
> Cc1ccc(-c2nc(CS(=O)(=O)CC(=O)Nc3cc(F)ccc3F)c(C)o2)cc1
→ -12%	-0.5	-3.7	0.8%	-3	-17%
> COc1ccc(CCNC(=O)c2nc(SCc3ccc(F)cc3)ncc2Cl)cc1OC
→ .	1.3	.	-3.9%	-6	.
> Cc1ccc(C(=O)c2oc3ccccc3c2NC(=O)Cc2coc3cc(C)ccc23)cc1
→ .	0.2	.	-13%	14	.
> COc1ccc(CNC(=O)c2nn(-c3ccccc3C)nc2CO)cc1
→ .	2.6	.	0.7%	-17	.
> Cn1ncc2c(=O)[nH]nnc21
→ 2%	0.0	.	1.1%	-1	8%
> O=C(O)CN1C(=O)COc2cc(S(=O)(=O)N3CCCC3)ccc21
→ -3%	-0.2	3.2	2.1%	-2	7%
> COc1ccc(NC(=O)C2CCOC2=O)cc1 (configuration not stated)
→ 9%[15.4 µM]	-0.6	.	-1.3%	-7	2%
> Cc1ccc(NC(=O)Cn2cnc3c(=O)n(C)c(=O)n(C)c32)c(C)c1
→ ?	-0.5	5.4	-1.0%	1	32%[activator]
> Cc1ccc(S(=O)(=O)N(Cc2cc3cccc(C)c3[nH]c2=O)c2ccccc2)cc1
→ 21%	1.2	-0.4	?	-4	3%
> Cc1ccc(NC(=O)Cn2c(=O)c3ccc(Cl)cc3n3nncc23)cc1
→ .	-0.5	.	2.1%	13	.
> COc1ccc(N2CCN(C(=O)CCc3c(C)nn(-c4ccc(N5CCCC5)nn4)c3C)CC2)cc1
→ .	-0.1	.	-0.9%	1	.
> Cc1cs/c(=N\N=C\c2ccc(O)cc2)n1Cc1ccco1
→ 0%	5.8	.	-3.8%	8	-10%
> Cc1ccc(CN2CC(C(=O)N3CC(C)CC(C)C3)CC2=O)cc1 (configuration not stated)
→ 11%[15.4 µM]	-1.1	.	.	12	4%
> O=C(Nc1ccc(C2CCCCC2)cc1)C1CCCN(c2ncccn2)C1 (configuration not stated)
→ -34%[inhibitor]	-0.7	4.7	-2.8%	3	15%
> COc1cc(OC)cc(C(=O)N2CCN(Cc3ccc4c(c3)OCO4)CC2)c1
→ -12%	-0.4	2.3	1.4%	8	6%
> Cc1cc(=O)n(Cc2ccc(Cl)cc2)c2c1c(C)nn2-c1ccccc1
→ .	0.1	.	-2.3%	-5	.
> Cc1ccc(S(=O)(=O)N/N=C/C(C)(C)CO)cc1
→ -32%	1.4	2.1	-0.1%	-14	3%
> O=C(N[C@@H](Cc1ccccc1)C(=O)OCc1ccccc1)c1ccco1
→ 27%	-0.3	.	3.8%	25	?
> CN(c1cccc(NC(=O)CSc2ccc(Cl)cc2)c1)S(C)(=O)=O
→ -48%[inhibitor]	3.3	0.9	1.1%	25	-11%
> O=S(=O)(c1ccccc1)c1nc(-c2cccs2)oc1SCc1ccccc1F
→ .	0.0	.	-5.8%	34	.
> COc1ccc(NC(=O)c2c([N+](=O)[O-])c(C(C)(C)C)nn2C)cc1
→ 4%	1.0	-1.6	.	6	-2%
> C[C@]12CC[C@H](OC(=O)CCC(=O)O)CC1=CCC1C2CC[C@@]2(C)C1CC[C@@H]2N (some centres not stated)
→ 13%	0.9	.	.	37	3%
> CNc1nc2c(c(=O)n(C)c(=O)n2C)n1Cc1ccccc1
→ 14%	-0.5	-1.6	0.6%	5	1%
> O=C(NNC(=O)c1ccco1)c1cccc(Br)c1
→ ?	0.7	.	0.2%	21	2%
> CCCCc1nnc(NC(=O)C2CC(=O)N(c3ccc4c(c3)OCCO4)C2)s1 (configuration not stated)
→ 5%[15.4 µM]	0.0	5.1	-2.9%	-2	7%
> CCOc1cc(C2C(C(=O)O)c3cc(OCC)c(OCC)cc3C(=O)N2C)ccc1O (configuration not stated)
→ -44%[inhibitor]	1.0	6.6	0.0%	28	5%
> O=C(CSc1n[nH]c(-c2ccccc2)n1)NC(=O)NCc1ccco1
→ -30%	-0.2	1.0	0.5%	-1	-7%
> COC(=O)c1ccccc1C(=O)c1cccc2ccccc12
→ -14%	0.7	2.6	.	-11	-7%
> CC(C)(O)C#Cc1ccc(CN2CCN(Cc3ccccc3)C(CCO)C2)cc1 (configuration not stated)
→ 12%	0.4	-7.3	.	0	9%
> COc1cc(C(=O)NCCc2csc(-c3ccc(Cl)cc3)n2)cc(OC)c1OC
→ .	4.0	.	-11%	31	.
> CC(NC(=O)c1ccc(S(=O)(=O)Nc2ccccc2Cl)cc1)c1ccncc1 (configuration not stated)
→ 0%	1.1	.	.	15	-8%
> Cc1ccc(C2=Nc3ccccc3N=C(c3ccc(F)cc3)C2)c(O)c1
→ .	0.0	.	3.3%	29	.
> O=S1(=O)CCC(NC(=S)Nc2ccc(Cl)cc2)C1 (configuration not stated)
→ -12%	-0.3	5.2	0.8%	2	11%
> CCN1C(=NCC(C)C)N[C@@H](c2cccc(F)c2)C(C(=O)OC)=C1C
→ 9%	-0.8	0.2&-7.2	-2.0%	7	7%
> Cc1nc2nc(-c3ccccc3)cc(=O)n2[nH]1
→ -28%	-0.1	1.3	-3.3%	1	-5%
> CCN(c1ccccc1)S(=O)(=O)c1ccc(NC(=O)c2cc(=O)c3cc(C)c(C)cc3o2)cc1
→ .	0.4	.	0.2%	-3	.
> COc1cccc(CNC(=O)Cn2nc(-c3ccc(C)cc3)ccc2=O)c1
→ .	0.1	.	-19%	2	.
> Cc1cn([C@H]2C[C@H](O)[C@@H](CNC(=O)CNC(=O)CN)O2)c(=O)[nH]c1=O
→ 15%	-0.1	.	0.6%	23	.
> Nc1ncc2c(n1)-c1ccccc1CC2
→ ?	-1.0	2.4	.	-6	-3%
> O=C(COC(=O)C1CC2C=CC1C2)NCCc1ccccc1 (configuration not stated)
→ -2%[15.4 µM]	-0.2	7.1	.	-8	11%
> CCOc1ccc(C(C(=O)NC2CCCCC2)N(C(=O)c2csnn2)C2CC2)cc1 (configuration not stated)
→ -2%[15.4 µM]	-0.5	-14	.	-24	.
> C#CC[N+](C)(C)CC#Cc1ccc(C)cc1
→ 24%	0.6	1.8	-0.6%	10	13%
> COc1cccc(C(=O)OC(C)C(=O)Nc2ccc3c(c2)OCO3)c1 (configuration not stated)
→ -30%	1.2	.	-1.3%	5	-6%
> Cc1ccsc1C(=O)NNC(=O)c1ccncc1
→ -5%[15.4 µM]	0.3	.	-3.6%	-1	2%
> COc1ccc(-c2cc(C(F)(F)F)nc(SCCC(=O)Nc3ccc(OC)c(OC)c3)n2)cc1
→ .	-0.7	.	1.5%	20	.
> COc1cc(C(=O)Nc2ccc(C(=O)c3cccs3)cc2)cc(OC)c1OC
→ -17%	.	-3.7	-0.7%	.	-25%
> C[C@H](CO)N1C[C@H](C)[C@H](CN(C)S(=O)(=O)c2ccccc2)Oc2c(NS(C)(=O)=O)cccc2C1=O
→ .	0.5	.	-2.6%	41	8%
> COC(=O)CNC(=O)c1ccc2c(c1)S(=O)(=O)c1ccccc1C2=O
→ -36%[inhibitor]	-0.5	-2.0	1.2%	6	2%
> Clc1ccc(CN2CCN(c3ccccc3)CC2)cn1
→ 11%[15.4 µM]	-0.3	-3.8	-11%	20	-6%
> [O-][n+]1onc2c1CCc1nnccc1-2
→ 16%	1.1	-0.3	-1.1%	0	7%

Next section.
Every second line gives: gsp ag	TRPML1 agonist	Menin MLL FP FL	ClpP mod	TRPML1 blocker	gsp antagonist
> COc1ccc(CNC(=O)CC2N=C3c4ccccc4N=C(SCC(=O)Nc4ccc(N(C)C)cc4)N3C2=O)cc1 (configuration not stated)
→ .	-0.7	.	-18%	-12	.
> O=C(Nc1nncs1)c1ccccc1Br
→ -3%	0.1	1.3	1.9%	14	1%
> NS(=O)(=O)c1ccc(CCNC(=O)c2ccc3c(c2)N(Cc2ccccc2)CCS3)cc1
→ ?	0.3	.	3.9%	17	-6%
> COc1ccc2nc(NC(=O)c3nc(SCc4cccc(C)c4)ncc3Cl)sc2c1
→ .	0.0	.	-0.9%	9	.
> O=C(O)C1CCN(C(=O)NC2CCCCC2)CC1
→ -47%[inhibitor]	-0.6	1.1	1.2%	7	13%
> C/C(=N\NC(=S)Nc1ccccc1C)C1Cc2ccccc2C(=O)O1 (configuration not stated)
→ 31%	-0.1	-0.6	.	-15	-4%
> CCN(C(=O)c1cc2c(=O)oc3ccc(C)cc3c2s1)c1ccccc1C
→ .	0.1	.	-0.3%	3	.
> CCOC(=O)c1ccc(NC(=O)CSc2nc3ccccc3c(=O)n2CCNC(C)=O)cc1
→ .	0.5	.	-0.3%	6	.
> O=C(Cn1c(=O)oc2ccccc21)Nc1ccc(F)cc1
→ -29%	0.1	5.9	.	-9	13%
> COc1cc(OC)nc(NC(=O)CS(=O)(=O)c2ccccc2)n1
→ ?	-0.3	-2.7	-2.0%	0	6%
> CCCCn1c(N)c(N(CCOC)C(=O)COC(=O)c2cc(CCC)c(C)s2)c(=O)[nH]c1=O
→ ?	-0.9	.	-4.1%	-6	1%
> Cc1c(NC(=O)C(C)OC(=O)COc2ccc(C#N)cc2)c(=O)n(-c2ccccc2)n1C (configuration not stated)
→ 2%[15.4 µM]	-0.2	.	0.7%	-9	12%
> CCCCn1c(=O)c2oc3ccccc3c2n(Cc2cccc(C)c2)c1=O
→ .	-0.4	.	-20%	-8	.
> CC(=O)Nc1ccc(C(=O)N2CC(=O)NC(=O)C2)cc1
→ 15%[15.4 µM]	0.6	6.2	.	-15	3%
> Cc1ccc(S(=O)(=O)N2CCN(c3cc4c(cc3[N+](=O)[O-])n(C)c(=O)n4C)CC2)cc1
→ -54%[inhibitor]	-0.2	0.4	-2.4%	40	?
> Cc1ccc(NC(=O)c2ccccc2Br)c(C(=O)c2ccccc2)c1
→ .	2.0	.	1.5%	-25	.
> Cc1ccc(S(=O)c2ccc(NC(=O)C3CC3)cc2C#N)cc1 (configuration not stated)
→ 17%[15.4 µM]	0.3	0.8	.	-11	-10%

Outcome played no part in choosing rows; about 2.1% have a hit in one of these screens.
